HPGD block: HPGD (human) dehydrogenase inhibition; P15428; purified HPGD, NADH fluorescence kinetic, PGE2 substrate; Potency, µM, without a hit: top-dose activity change, negative = inhibition, actives largely listed as inhibitors; hit rate 4.3% among 150,000; active = well fitted inhibition curve with a large enough effect (not every such curve was filed as active); inconclusive = small, poorly fitted or top-dose-only effect, or another doubt; inactive = no such curve, though single readings can be large or run the other way;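 note: top concentration of the series not given in the record; plate controls included wells without enzyme; inactives centre near -10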
Target sequence (P15428 whole entry, looked up): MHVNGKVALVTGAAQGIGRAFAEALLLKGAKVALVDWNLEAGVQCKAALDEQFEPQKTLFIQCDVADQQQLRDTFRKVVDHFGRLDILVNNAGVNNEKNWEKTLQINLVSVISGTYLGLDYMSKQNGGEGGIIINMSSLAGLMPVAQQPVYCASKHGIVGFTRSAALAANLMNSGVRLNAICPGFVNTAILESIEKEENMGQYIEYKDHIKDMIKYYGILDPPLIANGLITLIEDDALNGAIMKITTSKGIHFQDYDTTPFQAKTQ
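NADH formation kinetics: reaction with 30 uM PGE2 and 1 mM NAD+ (final), 20 nM enzyme, Tris-HCl pH 8 with Tween 20, after 15 min compound preincubation at room temperature. Fluorescence change, last versus first of five reads.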
Numbers without * were called inactive; u = inconclusive; & = joins results of further samples. % is set by controls: 0 for no effect and ±100 for the full control effect; potency is the fitted concentration of half-maximal effect. Only part of the results is shown, so the mix of outcomes need not match the whole.

SMILES	HPGD block
Cc1ccc(S(=O)(=O)N(CC(=O)O)Cc2cccc(C)c2)cc1	4%
Cc1cc(C)cc(OCC(=O)NCc2nc(-c3ccccc3)no2)c1	-9%
CSc1ccccc1NC(=O)CN(Cc1ccc(Cl)cc1)S(C)(=O)=O	-9%
COCCn1c(=NC(=O)c2ccccc2[N+](=O)[O-])sc2cc(S(C)(=O)=O)ccc21	-11%
C=CCC(Nc1ccc(OC)cc1)(C(=O)OCC)c1ccccc1 (configuration not stated)	-2%
COC(=O)Nc1nc(C)c(C(=O)N(C)C)s1	-5%
Cc1cc(Br)ccc1NC(=O)CNC(=O)CN(C)Cc1nc2ccccc2c(=O)[nH]1	-2%
CCN(CC)S(=O)(=O)c1ccc(S(=O)(=O)N(Cc2ccccn2)Cc2ccco2)cc1	-10%
CC(C)NCC(O)COc1cccc2[nH]ccc12 (configuration not stated)	-11%&-5%
Cc1ccc(C#N)c(SCc2nnc(-c3ccc(Cl)cc3)o2)n1	u
c1ccc(Cn2nnnc2C(c2ccccn2)N2CCOCC2)cc1 (configuration not stated)	-1%
CC1CC(C)CN(C(=O)COC(=O)CNS(=O)(=O)/C=C/c2ccccc2)C1 (configuration not stated)	-14%
N#Cc1ccc(/C=N/NC(=O)CCc2ccc(S(=O)(=O)N3CCOCC3)cc2)cc1	-1%
CCCc1cc2c(=O)c(-c3ccc4c(c3)OCCO4)c(C)oc2cc1OS(C)(=O)=O	-12%
ClCc1csc(-c2ccc(Cl)cc2)n1	-5%
Cc1cc(C)c2nc(NNC(=O)c3ccc(S(=O)(=O)N4CC(C)CC(C)C4)cc3)sc2c1 (configuration not stated)	-22%
COc1ccc([N+](=O)[O-])cc1NC(=O)Cn1ccsc1=N	-4%
C=CCn1c(COc2ccccc2)nnc1SCC(=O)N/N=C/c1ccc(C)cc1	-3%
CN(C)c1nc(Oc2ccc(C(=O)OCC(=O)Nc3ccccc3)cc2)nc(N(C)C)n1	-7%
CC(/C=N/N1CCN(c2ccc(C)cc2)CC1)=C\c1ccccc1	-2%
COc1ccc(-c2cc(=O)n(CCC#N)[nH]2)cc1	-7%
CCCNC(=O)C(=O)c1cccn1-c1ccsc1C(=O)OC	-12%
O=C(CSc1ccsc1[N+](=O)[O-])NCCc1ccccc1	-12%
O=C(CSc1nnc(-c2ccc(Cl)s2)o1)N1CCOCC1	-11%
COC(=O)c1cc(Br)c(=O)n(-c2ccc(OC)cc2)c1	-4%
Further structures.
SMILES	HPGD block
O=C(NCc1ccc(Cl)cc1Cl)C1CCN(S(=O)(=O)c2ccc3c(c2)OCCCO3)CC1	-8%
Cc1nn(-c2cc(Cl)ccc2N)c(=O)c2ccccc12	-13%
CCOC(=O)CN1C(=O)SC(CC(=O)Nc2nccs2)C1=O (configuration not stated)	-8%
CCn1c(SCCN2CCCCC2)nnc1-c1ccc(S(=O)(=O)N2CCOCC2)cc1	-21%
COc1ccc(CCN2CN(S(=O)(=O)c3ccccc3)c3nc4ccccc4nc32)cc1	-28%
O=C(c1csc2c1CCCC2)N1CCN(c2ncccn2)CC1	-4%
COc1nc(OC)nc(N2CCC(C(=O)Nc3cccc4c3CCCC4)CC2)n1	-8%
O=C(NC(=S)Nc1c(Cl)ccc2nsnc12)c1ccco1	u
C/C(=C\C1CCCCC1)C(NC(=O)c1cccnc1)c1ccc(-c2ccccc2)cc1 (configuration not stated)	-19%
CC(C)Cn1c(-c2csc3c2CCCC3)n[nH]c1=S	28µM*
COc1cccc(C2C(C(=O)c3ccco3)=C(O)C(=O)N2CCN(C)C)c1OC (configuration not stated)	-13%
CCN(CC)CCN1C(=O)c2ccccc2NC1c1ccccc1F (configuration not stated)	u
CC(C)NC(=O)CCS(=O)(=O)c1ccc(Br)s1	-9%
Cc1n[nH]c(=O)nc1NC(C)c1ccccc1 (configuration not stated)	-6%
Cc1ccccc1NS(=O)(=O)c1ccc(NC(=O)c2nc3ncccn3n2)cc1	u
CCN(CC)C(=O)C1CCN(CC2CC=CCC2)CC1 (configuration not stated)	2%
CC1CCCCN1Cc1c(C#N)c2ccccc2n1C (configuration not stated)	-7%
CCOc1ccc(OCC)c(NC(=O)CN2CCN(c3cc(C)ccc3C)CC2)c1	-21%
C=C(C)c1cccc(C(C)(C)NC(=O)N2CCC(C)CC2)c1	-9%
Cn1c(N)c(C(=O)CCl)c(=O)n(Cc2ccccc2)c1=O	-16%
COC(=O)NC(CCc1ccccc1)C(C(=O)OC)C(=O)OC (configuration not stated)	-8%
CCOC(=O)N1CCN(C(=O)c2ccc3c(c2)NC(=O)C(N2CCOCC2)S3)CC1 (configuration not stated)	0%
C=C(C)c1nc(N)nc(N)n1	-7%
CCCCSc1nnc2nc(C)cc(C)n12	-6%
O=C(N/N=C/c1cccc([N+](=O)[O-])c1)c1ccc2c(c1)OCCO2	-12%
Next section
SMILES	HPGD block
COc1ccc(S(=O)(=O)N2CCN(c3ccc(C)cc3C)CC2)cc1OC	-21%
CC1(OC(=O)CCc2ccccc2)C(=O)C=C2C=C(c3ccc(C#N)cc3)N(CCc3c[nH]c4ccccc34)C=C2C1=O (configuration not stated)	-10%
COC(=O)c1sc(S(=O)(=O)Nc2ccc(C)c(C)c2)c(C(=O)OC)c1C	-12%
COc1ccc(CC(=O)Oc2cc(C)[nH]c(=O)c2[N+](=O)[O-])cc1	-8%
Cc1cccc[n+]1CC(=O)Nc1ccc([N+](=O)[O-])cc1Cl	-16%
COc1ccc(-c2nnn(CC(=O)NCCc3c[nH]c4ccccc34)n2)cc1OC	-9%
CN(CCOc1ccc(CC2SC(=O)NC2=O)cc1)c1ccccn1 (configuration not stated)	u
CCc1ccc(-c2cc(C(=O)N3N=C(C(F)F)CC3(O)C(F)F)c3ccccc3n2)cc1 (configuration not stated)	u
COc1ccc(S(=O)(=O)n2nc(-c3ccc(Cl)cc3)cc2N)cc1OC	-19%
O=C(COc1ncnc2ccc(Br)cc12)Nc1ccc(N2CCOCC2)cc1	-4%
CCOC(=O)c1oc2c(CN3CCCCC3C)c(O)ccc2c(=O)c1-c1ccc(OC)c(OC)c1 (configuration not stated)	-7%
Cc1ccc(CNC(=O)C2c3ccccc3C(=O)N3CCc4ccccc4C23)o1 (configuration not stated)	-26%
O=C(NCc1ccc(F)cc1)C(c1ccncc1)N(C(=O)c1csnn1)C1CC1 (configuration not stated)	-14%
Cc1cccc(C(=O)NCCN(C)C)c1	-5%
Cc1ccc(N(CC(=O)N2CCOCC2)S(C)(=O)=O)cc1C	-2%
CCNC(=S)NNC(=O)c1c(Cl)c(C)nn1C	-13%
COc1cc(/C=N/NC(=O)c2csc3c2CCCC3)cc(OC)c1O	-1%
O=C1CCC(/C=C/c2ccccc2)=NN1Cc1ccccc1Cl	-11%
CNc1nc2ccccc2n1N	-14%
CCc1ccc(C(=O)NCc2ccc(Cl)cc2)cc1	-9%
CCn1cc(C(=O)NC(=S)Nc2cccc(O)c2)cn1	-9%
CCOC(=O)c1sc2nc3c(cc2c1N)COC(C)(C)C3	-19%
CN1/C(=C\C(=O)C(F)F)C(C)(C)c2ccccc21	-11%
Cc1cc(-c2ccccc2)nc(N2CCN(c3ccccn3)CC2)n1	u
CCOC(=O)c1[nH]c(C)c(C(=O)C(C)C)c1C	-16%

In a second layout: entries from further up
mol,HPGD block
CCc1ccc(-c2cc(C(=O)N3N=C(C(F)F)CC3(O)C(F)F)c3ccccc3n2)cc1 (configuration not stated),u
COc1ccc(S(=O)(=O)n2nc(-c3ccc(Cl)cc3)cc2N)cc1OC,-19%
O=C(COc1ncnc2ccc(Br)cc12)Nc1ccc(N2CCOCC2)cc1,-4%
CCOC(=O)c1oc2c(CN3CCCCC3C)c(O)ccc2c(=O)c1-c1ccc(OC)c(OC)c1 (configuration not stated),-7%
Cc1ccc(CNC(=O)C2c3ccccc3C(=O)N3CCc4ccccc4C23)o1 (configuration not stated),-26%
O=C(NCc1ccc(F)cc1)C(c1ccncc1)N(C(=O)c1csnn1)C1CC1 (configuration not stated),-14%
Cc1cccc(C(=O)NCCN(C)C)c1,-5%
Cc1ccc(N(CC(=O)N2CCOCC2)S(C)(=O)=O)cc1C,-2%
CCNC(=S)NNC(=O)c1c(Cl)c(C)nn1C,-13%
COc1cc(/C=N/NC(=O)c2csc3c2CCCC3)cc(OC)c1O,-1%
O=C1CCC(/C=C/c2ccccc2)=NN1Cc1ccccc1Cl,-11%
CNc1nc2ccccc2n1N,-14%
CCc1ccc(C(=O)NCc2ccc(Cl)cc2)cc1,-9%
CCn1cc(C(=O)NC(=S)Nc2cccc(O)c2)cn1,-9%
CCOC(=O)c1sc2nc3c(cc2c1N)COC(C)(C)C3,-19%
CN1/C(=C\C(=O)C(F)F)C(C)(C)c2ccccc21,-11%
Cc1cc(-c2ccccc2)nc(N2CCN(c3ccccn3)CC2)n1,u

Continued:
SMILES	HPGD block
Cc1ccc2oc(=O)c3cc(C(=O)NCCCN4CCc5ccccc5C4)sc3c2c1	-22%
CCOC(=O)c1sc(NC(=O)CSc2nc(C)cc(-c3ccccc3)n2)c(C#N)c1C	7.1µM*
CC1CCN(c2c(NCC3CCC(C(=O)N4CCc5ccccc5C4)CC3)c(=O)c2=O)CC1 (configuration not stated)	2.5µM*
COC(=O)C1=C(C)N(CCC2=CCCCC2)C(=O)C1	-9%
Cc1cc(C(=O)NCc2ccccc2)c(=O)[nH]c1C	u
CCOc1ccc(S(=O)(=O)NCCSCc2ccco2)cc1	-22%
CCc1n[nH]c(=S)n1/N=C/c1cc(Br)c(OC)cc1OC	7.9µM*
O=C(Cn1c(SCC(=O)NC2CCCC2)nnc1-c1ccncc1)Nc1ccc2c(c1)OCO2	-1%
CCC(CC)C(=O)NCCc1cc2cc(C)c(C)cc2[nH]c1=O	-19%
CCCC(c1cc(C(C)(C)C)c(O)cc1C)c1cc(C(C)(C)C)c(O)cc1C	-20%
O=C(Nc1cccc(C(F)(F)F)c1)c1ccc2nc(-c3ccco3)c(-c3ccco3)nc2c1	u
CCOC(=O)c1sc(=S)n(-c2cc(F)ccc2F)c1N	25µM*
C[C@H](NS(=O)(=O)c1ccccc1)C(=O)OCC(=O)NC(=O)Nc1ccc2c(c1)OCCO2	-13%
COCCNC(=S)N/N=C(\C)c1cc2ccccc2o1	-13%
O=C(CN1CCN(c2nc(-c3ccccc3)cs2)CC1)NCc1ccc2c(c1)OCO2	-11%
CCc1ccc(CNCCSc2nnnn2C)cc1	-21%
COCCCNC(=O)CCCn1c(=O)[nH]c2ccccc2c1=O	-17%
COC(=O)c1ccc2c(=O)n(CC3CCCO3)c(SCC(=O)Nc3ccccc3Cl)nc2c1 (configuration not stated)	-9%
Cc1ccc(NC(=O)Nc2nc(-c3ccc(C)s3)cs2)cc1	1%
COc1ccc(N2CCN(S(=O)(=O)c3cccc(C(F)(F)F)c3)CC2)cc1	-7%
CCOc1ccc(C2CC(=O)NC3=C2C(=O)CCC3)cc1Cl (configuration not stated)	-13%
Nc1c2ccccc2nc2c(O)cccc12	-6%
CCN=C1NN=C(c2cc(C)n(Cc3ccco3)c2C)CS1	-13%
N#Cc1c(N)[nH]c(=S)c(C#N)c1-c1ccccc1	-24%
COc1ccccc1-c1c(C)oc2cc(OC(=O)c3ccco3)ccc2c1=O	-4%
(further entries)
SMILES	HPGD block
C[N+](C)(C)c1ccc([C@H](N)C(=O)O)cc1	-7%
COC(=O)c1ccccc1NC(=O)CSc1nnnn1-c1ccc(C)cc1C	-19%
CCOc1nc2ccccc2nc1NS(=O)(=O)c1ccccc1	-16%
c1ccc(N2CCN(CCc3nnc4n3CCCCC4)CC2)cc1	-5%
O=C(N=C1c2ccccc2CN1c1cccc(Cl)c1)c1cccnc1	-4%
O=C1C2CC=CCC2C(=O)N1c1cccc(OS(=O)(=O)c2ccc3ccccc3c2)c1 (configuration not stated)	-27%
COCCn1c(=S)[nH]c2cc(C(=O)N3CCc4ccccc43)ccc2c1=O	-10%
COc1ccc(-c2[nH]ncc2-c2ccc(Cl)cc2)c(O)c1	-17%
Cc1cccc(C(=O)Oc2ccccc2/C=N/NC(=O)c2ccc(NC(=O)C(C)(C)C)cc2)c1	-6%
O=C(CSC1=NCCN1)c1ccccc1	-7%
N#Cc1ccc(CSc2nnc(-c3cnccn3)o2)cc1	-7%
COC(=O)C1=C(C(=O)OC)[C@@H]2N(Cc3ccccc3)c3ccccc3[C@@]23C[C@@H](C(=O)OC)N(C(=O)c2cc(C)oc2C)C3=N1	1%
CSc1nc(-c2ccccc2)nc(N2CCCC2)c1C(C)=O	20µM*
COC(=O)c1sccc1NC(=S)Nc1ccccc1	-3%
Cc1ccc(Sc2nc(-c3ccccc3)nnc2C(F)(F)F)cc1	-8%
CCOC(=O)c1c(C)n(-c2ccc(OC)cc2)c2c(C/C(C)=N/O)c(Br)c(OC)c(O)c12	-2%
O=C(N/N=C/c1ccccc1O)c1cc(=O)[nH]c2ccccc12	u
CCCC/C(C)=N/NC(=O)CN(c1ccc(Br)cc1)S(=O)(=O)c1ccccc1	-2%
Cc1ccc(CN2CCN(/N=C/c3cc(Br)cc(Br)c3O)CC2)cc1	-14%
O=C(C1CC(=O)N(c2ccccc2)C1)N1CCN(C2=NS(=O)(=O)c3ccccc32)CC1 (configuration not stated)	-10%
CCOc1cc(C2C(C(=O)OC)=C(C)N=C3SC(C)C(=O)N32)ccc1OC(C)=O (configuration not stated)	-6%
c1ccc(-n2ncc3c(NCc4cccs4)ncnc32)cc1	5µM*
Cc1cc(C)c2[nH]c(=O)c(CN(Cc3ccco3)C(=S)NCC3CCCO3)cc2c1 (configuration not stated)	u
S=C(c1ccc(-c2ccccc2Cl)o1)N1CCCCC1	28µM*
COC(=O)c1ccccc1NC(=O)N1CCCC1	u
CC(=O)Nn1cc2c(=O)n(C)c(=O)n(C)c2c1	-5%
COCCCN1C(=O)C(O)=C(C(=O)c2ccco2)C1c1ccccc1 (configuration not stated)	-11%
Cc1nn(Cc2ccccc2Cl)c(C)c1NC(=O)c1noc2c1CCCCC2	-13%
COC(=O)c1ccc(OCCOCCOc2cccc3ccc(C)nc23)cc1	u
